Screening data (PubChem)
MT1-MMP act inh = blocks activation of human MT1-MMP; actives 0.061% (n = 360,000); P50281; AID 651647; HT1080 RFP-PRO-GFP cells, GFP/RFP ratio fluorescence, overnight; percent of plate control window, DMSO zero; GFP/RFP ratio change, % at 20 µM;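 active means GFP/RFP ratio change of at least 30% with cell ATP level not reduced by more than half and red fluorescence within 50% of control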; further: strong numbers were not always called active
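Assay system: HT1080 cells carrying an RFP-PRO-GFP reporter | Dosing: Single dose of 20 µM compound, 1% DMSO final | Incubation: Cells overnight before dosing, compound overnight, 37 °C, 5% CO2 | Evaluation: GFP/RFP fluorescence ratio | Control set: DMSO and RFP-L50D-GFP cell wells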
HIV Env fusion = inhibitors of HIV Env-mediated cell fusion | inhibition, % at 12.3 µM | AID 651610 | HeLa-JRFL Env/CEM21 cell fusion, luciferase | actives 1.1% (n = 360,000);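 active means mean replicate inhibition score of at least 50 and every replicate individually at or above 50; inconclusive means only one of the two criteria met; inactive means mean below 50 and not all replicates reaching 50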;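 further: 0% = plate neutral controls and 100% = maraviroc near 300 nM; one replicate is shown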
PABP FP inh = PABP-poly(A) binding inhibition | PABP-poly(A) RNA binding, fluorescence polarization | actives 1% (n = 290,000) | AID 2014 | inhibition, % at 35 µM | P11940;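 active means 50% or more with normal probe brightness, or confirmed in later tests; inconclusive means above 50% with abnormal brightness, or retests that disagree; inactive means below 50% or failed in later tests; about a fifth of its hits are not listed in these tables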;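 further: calls also rest on retests at 20 µM and on dose response follow-up; controls were probe without protein and protein plus probe with vehicle; some compounds called inactive have numbers as strong as hits; many hits fall short of the cut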
eIF4H FP inh = inhibitors of RNA binding by human eIF4H; AID 2012; Q15056; eIF4H fluorescence polarization binding assay; inhibition, % at 35 µM; actives 0.94% (n = 290,000);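 active means 50% or more with normal probe brightness, or confirmed in later tests; inconclusive means above 50% with abnormal brightness, or retests that disagree; inactive means below 50% or failed in later tests; about a fifth of its hits are not listed in these tables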;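 further: calls also rest on retests at 20 µM and on dose response follow-up; 0% = protein and probe with vehicle and 100% = probe without protein; strong numbers were not always called active; many hits fall short of the cut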
Rce1 inh = inhibitors of yeast Ras-converting enzyme. actives 0.27% (n = 290,000). calls only. Q03530. AID 2563. yeast membranes, quenched prenylated peptide cleavage fluorescence;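 active means fall in fluorescence gain of 50% or more versus controls, with final raw signal at or below 3038400; inconclusive means same 50% fall but final raw signal above 3038400; inactive means fall in fluorescence gain under 50%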;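 further: plate controls were neutral control wells for no effect and wells lacking membranes for full effect; tested at 10 µM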
Target sequence (Q03530 whole entry, looked up): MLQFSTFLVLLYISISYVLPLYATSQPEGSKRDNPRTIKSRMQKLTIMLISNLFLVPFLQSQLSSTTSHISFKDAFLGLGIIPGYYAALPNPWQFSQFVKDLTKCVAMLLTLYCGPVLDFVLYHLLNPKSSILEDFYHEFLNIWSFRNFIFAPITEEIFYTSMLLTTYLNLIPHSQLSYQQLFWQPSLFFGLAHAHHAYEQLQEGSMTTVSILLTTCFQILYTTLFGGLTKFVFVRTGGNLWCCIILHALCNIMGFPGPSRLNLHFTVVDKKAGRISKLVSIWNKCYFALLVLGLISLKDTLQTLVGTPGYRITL
Yeast UUG start = modulators of start codon recognition fidelity in yeast. S. cerevisiae UUG-firefly luciferase reporter, luminescence/redox ratio. activity score, % at 18.7 µM. actives 0.13% (n = 350,000);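 active means replicate mean at a twofold rise or more, about +100% in these data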;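 further: firefly luciferase made from a UUG start codon reports start codon fidelity; reporter light over untreated wells divided by growth signal over untreated wells; some hits fall short of that in this replicate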
CSC inhib = cancer stem cell inhibition; cancer stem cell-like cells viability, luminescence; inhibition, % at 7.5 µM; actives 1.1% (n = 300,000); AID 2717;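 active means mean at 75% or more and at least half the replicates too; inconclusive means mean and replicates disagree; tested in HMLE shEcad cells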;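 further: 0% = median of negative and 100% = median of positive control wells; the first replicate is given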
MT1-MMP act inh RFP = also measured in MT1-MMP act inh; calls as there; RFP signal change, %; measured here: RFP expression control read;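 0 = vehicle wells; hits needed this value within 50% of zero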
Numbers without * were called inactive; i = inactive; u = inconclusive; x = not tested or not shown. Not all compounds are listed; count on the stated rates, not on these rows.

No.	canonical_smiles	CSC inhib	HIV Env fusion	eIF4H FP inh	PABP FP inh	Yeast UUG start	MT1-MMP act inh RFP	MT1-MMP act inh	Rce1 inh
1	Cc1ccc(S(=O)(=O)/C(C#N)=C/c2c(N3CCC(C(N)=O)CC3)nc3c(C)cccn3c2=O)cc1	-9	1	-5	-11	-12	-2	-2	i
2	CCOc1ccc(N(CC(=O)NCCc2ccccc2)S(=O)(=O)c2ccccc2)cc1	-8	13	3	-2	-7	1	2	i
3	CCCS(=O)(=O)N1CCN=C1SCc1ccc(F)cc1	-7	-10	-3	11	-5	1	-2	i
4	Cc1ccc(C(=O)OC(C)CN2CCN(C)CC2)cc1 (configuration not stated)	6	-11	0	2	-4	-3	4	i
5	Cc1ccc(NNC(=O)c2ccc(Cl)cc2)nn1	-7	-11	-7	-8	x	2	0	i
6	Cc1ccc(-n2cc(CN3CCC(CO)(Cc4cccc(C(F)(F)F)c4)CC3)cn2)cc1	61	7	-14	-5	-8	-9	-3	i
7	O=C(CCC(=O)NNC(=O)c1ccccc1[N+](=O)[O-])NCc1ccccc1	-7	8	-6	0	x	-1	0	i
8	CCOc1ccccc1CNC(=O)C1CCCN(c2ncnc3c2nc2n3CCCCC2)C1 (configuration not stated)	-5	x	-4	1	35	-1	-3	i
9	O=C(CSc1n[nH]c(=O)n1Cc1ccco1)c1ccc(F)cc1	10	3	1	4	1	-2	-5	i
10	Cc1ccc(C(=O)N(C)Cc2ccc(N3CCOCC3)cc2)cc1S(=O)(=O)NCc1ccccc1	-8	-6	x	x	x	-9	-2	x
11	CCOC(=O)c1c(C)n(C)c2ccc(OCC(O)Cn3c(C)nc4ccccc43)cc12 (configuration not stated)	x	27	-6	-16	0	-9	4	i
12	Cc1ccc(CNC(=O)C2CCCCN2S(=O)(=O)c2ccccc2)cc1 (configuration not stated)	-11	18	4	2	17	2	-1	i
13	Cc1ccccc1C(=O)NNC(=O)c1ccc(F)cc1	1	-18	4	-6	5	9	2	i
14	COC(=O)c1cc(NS(=O)(=O)c2ccc(F)cc2)ccc1N1CCOCC1	5	-23	0	-3	x	-2	7	i
15	C=CCNC(=O)COc1coc(CN2CCN(C(=O)c3ccco3)CC2)cc1=O	-13	-1	x	x	-26	4	1	i
16	Cc1ccc(OCCCn2ccnc2)cc1C	-5	x	8	-4	x	-1	2	i
17	O=C(CCc1ccccc1)Nc1ccnn1C1CCN(Cc2ccc(OCCO)cc2)CC1	-6	0	5	-3	12	4	0	i
18	CC1(C)CC(NC(=O)c2cc(S(=O)(=O)N3CCCCC3)ccc2Cl)CC(C)(C)N1	-8	21	0	5	-11	4	0	i
19	O=C(Cc1ccccc1)NCc1ccc(-n2cccc2)cc1	57	-15	-1	-2	x	-14	-3	x
20	O=C1NC(c2ccccc2OC(F)F)Oc2ccccc21 (configuration not stated)	-13	-6	-8	-2	-14	5	2	i
21	COc1ccccc1NC(=S)Nc1ccc2cn[nH]c2c1	-21	-4	0	11	-32	6	-3	i
22	COc1cc(/C=c2\s/c(=C(/C#N)C(=O)N3CCCC3)n(-c3ccccc3)c2=O)ccc1O	-8	x	80*	112*	-16	49	17	i
23	CCOc1ccc(NC(=O)c2cc3c(C)nc4ccccc4c3o2)cc1	32	-25	-4	-12	-11	-13	10	i
24	Cn1c(SCC(=O)Nc2nccs2)nnc1C1CC1	20	11	0	17	-10	1	-3	i
25	CCc1nc2c3cnn(-c4cc(Cl)ccc4C)c3ncn2n1	-13	x	-4	-4	x	-1	2	x
26	O=c1c2ccccc2nnn1CCO	-4	-1	6	-12	x	0	-6	i
27	CCN(CC(=O)Nc1ccc(NC(C)=O)cc1)C(=O)c1ccccc1Sc1ccccc1C#N	-3	x	x	x	-7	1	-2	x
28	CC1CCCN(S(=O)(=O)c2ccc(CN3C(=O)c4cccnc4C3=O)cc2)C1 (configuration not stated)	-7	-7	0	3	1	0	1	i
29	O=C(CSc1ccccc1)NC(=O)NCc1ccccc1	-3	-10	18	10	x	0	0	i
30	O=C(N/N=C/c1ccc(O)c(O)c1)c1cc(-c2ccccc2)nc2ccccc12	8	-2	12	8	-4	-4	3	i

Arranged by value in HIV Env fusion (smallest number first): three of the compounds above
No.	SMILES	HIV Env fusion	Yeast UUG start	MT1-MMP act inh RFP	MT1-MMP act inh	Rce1 inh
3	CCCS(=O)(=O)N1CCN=C1SCc1ccc(F)cc1	-10	-5	1	-2	i
1	Cc1ccc(S(=O)(=O)/C(C#N)=C/c2c(N3CCC(C(N)=O)CC3)nc3c(C)cccn3c2=O)cc1	1	-12	-2	-2	i
6	Cc1ccc(-n2cc(CN3CCC(CO)(Cc4cccc(C(F)(F)F)c4)CC3)cn2)cc1	7	-8	-9	-3	i

Back to the main list with the 5 entries that preceded the break.
No.	canonical_smiles	CSC inhib	HIV Env fusion	eIF4H FP inh	PABP FP inh	Yeast UUG start	MT1-MMP act inh RFP	MT1-MMP act inh	Rce1 inh
26	O=c1c2ccccc2nnn1CCO	-4	-1	6	-12	x	0	-6	i
27	CCN(CC(=O)Nc1ccc(NC(C)=O)cc1)C(=O)c1ccccc1Sc1ccccc1C#N	-3	x	x	x	-7	1	-2	x
28	CC1CCCN(S(=O)(=O)c2ccc(CN3C(=O)c4cccnc4C3=O)cc2)C1 (configuration not stated)	-7	-7	0	3	1	0	1	i
29	O=C(CSc1ccccc1)NC(=O)NCc1ccccc1	-3	-10	18	10	x	0	0	i
30	O=C(N/N=C/c1ccc(O)c(O)c1)c1cc(-c2ccccc2)nc2ccccc12	8	-2	12	8	-4	-4	3	i
31	O=C(CCN1CCN(Cc2ccccc2)CC1)NNC(=O)c1cc2ccccc2o1	-11	4	x	x	-18	1	1	x
32	CN(C)S(=O)(=O)NCC1CCCN(Cc2cc3ccccc3s2)C1 (configuration not stated)	-1	-29	x	x	9	0	0	i
33	CC(C)CNC(=O)C(=O)NCc1ccccc1	2	-7	-7	6	-49	2	0	i
34	CCOC(=O)C1(C(=O)OCC)CC1c1ccccc1 (configuration not stated)	-3	x	-8	-12	-2	6	2	i
35	O=C(O)Cc1ccc(NC(=O)C2CC=CCC2C(=O)O)cc1 (configuration not stated)	-9	x	1	15	x	x	x	i
36	O=C(CSC1=NCCS1)NC(c1ccccc1)c1ccccc1	9	-15	-6	0	-21	-7	-11	i
37	COc1ccc(NC(=O)N2CCc3ccccc3C2)cc1OC	2	-11	3	-2	-2	-1	3	i
38	COc1cc(CO)ccc1OCc1ccc(Cl)nc1	-3	-33	-6	-3	-11	0	0	i
39	COc1ccccc1C(CNC(=O)c1cccc(S(=O)(=O)Nc2ccc(F)cc2)c1)N(C)C (configuration not stated)	-8	x	x	x	-7	-2	7	x
40	O=C1CC(NC(=O)c2ccc(Cl)cc2)C(=O)N1 (configuration not stated)	-1	-12	8	-1	x	-1	-3	i
41	CCOc1ccc(NC(=O)c2cc(C3CC3)nc3c2cnn3C(C)C)cc1OC	5	-6	x	x	-10	-6	1	x
42	CCN(CC)S(=O)(=O)c1ccc(C)c(NC(=S)N2CCN(Cc3ccc4c(c3)OCO4)CC2)c1	3	26	4	-4	-6	-22	2	i
43	Cc1ccc(S(=O)(=O)N(C)CC(=O)NCCCc2ccccc2)cc1	-20	-1	-11	1	-3	-3	0	i
44	CCOc1cc(C(=O)Nc2ccc(C)cc2O)ccc1OCC(=O)N1CCOCC1	-9	-6	x	x	x	4	-7	i
45	COc1cccc(CNC(=O)C2CCN(S(=O)(=O)c3ccc4c(c3)NC(=O)C(C)S4)CC2)c1 (configuration not stated)	-11	7	-10	6	-9	-12	-1	i
46	O=C(c1ccco1)N1CCN(C(=O)c2ccc(-c3cccc(C(F)(F)F)c3)o2)CC1	x	3	x	x	x	1	2	i
47	COc1cccc(NC(=O)CCN2CCC(C(N)=O)CC2)c1	-18	-13	2	3	-17	-4	-1	i
48	Cc1cccc(OCCCC(=O)N2CCCc3ccccc32)c1C	x	x	-4	0	15	-1	2	i
49	CCCC(=O)N1N=C(c2ccccc2)CC1c1cn(C)c2ccccc12 (configuration not stated)	4	28	10	-3	-13	-8	2	i
50	CCOC(=O)C1CCN(C(=O)c2cccc(Cl)c2)CC1	3	-19	-7	2	-8	0	0	i
51	CCC(C)C1NC(=S)N(Cc2ccccc2)C1=O (configuration not stated)	5	x	-13	-10	-23	-4	-1	x
52	COc1cc(/C=N/N2CCOCC2)ccc1OCc1ccc(Cl)cc1	0	-41	-2	-19	x	0	5	i
53	NC(=O)c1nsc(C(=O)N(CC(=O)NC2CCCC2)c2cnc3ccccc3c2)c1N	3	x	5	2	x	x	x	i
54	CCOC(=O)N1CCN(Cc2ccc(O)c3ncccc23)CC1	46	-5	13	-8	x	x	x	i
55	COC(=O)c1ccc(/C=N\NC(=O)c2c(C)nc3ccc(Cl)cn23)cc1	8	x	-13	0	-11	-3	-2	i
56	CCn1c(=O)c(C(=O)CC#N)c(N)n(Cc2ccccc2)c1=O	-4	11	9	-5	6	1	1	i
57	Cc1ccc(NC2=NCCC2)cc1Cl	11	-1	-7	3	-5	4	3	i
58	Cc1ccc(-n2c(C)cc(/C=N/NC(=O)Cn3c4ccccc4c(=O)c4ccccc43)c2C)cc1	x	-26	4	28	x	-4	-7	x
59	O=C(OCCN1C(=O)c2cccc3c(N4CCOCC4)ccc(c23)C1=O)c1ccc(Cl)cc1Cl	21	40	u	8	x	-15	-164	i
60	CC(=O)c1cc2c(cc1NC(=O)CN1CCCCC1C)OCO2 (configuration not stated)	-7	x	8	7	-3	2	-2	i

Profiles from above. Order of values: CSC inhib, HIV Env fusion, eIF4H FP inh, PABP FP inh, Yeast UUG start, MT1-MMP act inh RFP, MT1-MMP act inh, Rce1 inh
Cc1ccc(NC2=NCCC2)cc1Cl in the list: 11, -1, -7, 3, -5, 4, 3, i
CCOc1cc(C(=O)Nc2ccc(C)cc2O)ccc1OCC(=O)N1CCOCC1 in the list: -9, -6, x, x, x, 4, -7, i
O=C(O)Cc1ccc(NC(=O)C2CC=CCC2C(=O)O)cc1 (configuration not stated) in the list: -9, x, 1, 15, x, x, x, i
COc1cccc(NC(=O)CCN2CCC(C(N)=O)CC2)c1 in the list: -18, -13, 2, 3, -17, -4, -1, i
COC(=O)c1ccc(/C=N\NC(=O)c2c(C)nc3ccc(Cl)cn23)cc1 in the list: 8, x, -13, 0, -11, -3, -2, i
